Rango-impB inh: prevents formation of the Rango-importin beta complex; Q14974; Rango CFP/YFP FRET sensor + importin beta, 45 min; Potency, µM (highest dose often 92.2 µM), without a hit: at the highest dose inhibition of complex formation; 340,000 compounds, 0.031% hits; AID 540263; active = rising FRET ratio curve, often small or poorly fitted; inconclusive = mostly compound fluorescence or quenching in the first reads; inactive = flat curves in all reads;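 note: potency is the fitted concentration of half-maximal effect; 0% = DMSO wells and 100% = buffer wells lacking importin beta; nearly all actives have a fitted effect of over 15% in size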
Target sequence (Q14974 whole entry, looked up): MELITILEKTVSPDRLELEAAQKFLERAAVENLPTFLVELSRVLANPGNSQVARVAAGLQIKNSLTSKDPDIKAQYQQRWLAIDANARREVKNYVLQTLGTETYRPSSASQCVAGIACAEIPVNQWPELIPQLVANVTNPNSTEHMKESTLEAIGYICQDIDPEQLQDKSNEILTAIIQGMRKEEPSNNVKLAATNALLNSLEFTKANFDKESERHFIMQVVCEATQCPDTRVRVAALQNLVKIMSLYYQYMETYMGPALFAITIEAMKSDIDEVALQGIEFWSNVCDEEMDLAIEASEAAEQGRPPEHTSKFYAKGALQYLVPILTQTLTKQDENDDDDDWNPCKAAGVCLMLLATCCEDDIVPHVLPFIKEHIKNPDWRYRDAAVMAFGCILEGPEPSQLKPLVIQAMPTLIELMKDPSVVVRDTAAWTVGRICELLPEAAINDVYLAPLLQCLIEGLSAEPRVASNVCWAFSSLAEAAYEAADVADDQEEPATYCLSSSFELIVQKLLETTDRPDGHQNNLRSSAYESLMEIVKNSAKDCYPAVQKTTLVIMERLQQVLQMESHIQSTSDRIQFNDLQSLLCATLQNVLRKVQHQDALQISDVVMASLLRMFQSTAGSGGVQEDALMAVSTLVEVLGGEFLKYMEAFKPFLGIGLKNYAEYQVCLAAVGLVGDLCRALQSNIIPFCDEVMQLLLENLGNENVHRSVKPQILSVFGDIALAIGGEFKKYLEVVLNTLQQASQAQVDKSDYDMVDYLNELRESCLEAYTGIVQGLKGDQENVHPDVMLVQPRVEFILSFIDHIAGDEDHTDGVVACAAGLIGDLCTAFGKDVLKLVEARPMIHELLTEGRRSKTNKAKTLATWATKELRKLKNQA
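FRET biosensor (snurportin 1 IBB flanked by EYFP and cerulean), 50 nM, with compound 5 min, then 0.125 microM importin beta in PBS, 1 mM DTT, 0.02% Tween-20, 0.1% BSA. CFP/YFP ratio read after 45 min at room temperature; pre-read flags interference.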
Rango dissoc inh: inhibitors of RanGTP-induced Rango-importin beta complex dissociation; Biochemical FRET Rango-importin beta, RanGTP-induced dissociation; Potency, µM (doses to about 46.1 µM), for inactives: top-dose activity change, negative = inhibition; 340,000 compounds, 0.071% hits; AID 540253; active means falling FRET ratio curve, often poorly fitted, with flat reads before Ran was added; inconclusive means other falling curves, or compound fluorescence or quenching; inactive means flat or rising ratio curve;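 note: potency is the fitted concentration of half-maximal effect; % of control where 0% means no effect; nearly all actives have a fitted effect of over 45% in size; -100% = wells without RanGTP and RCC1; the record marks most hits as doubtful in a second field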
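Rango (0.1 uM)–importin beta (0.25 uM) complex; RanGTP-RCC1 trigger; 45 min RT; CFP/YFP FRET read.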
GLA inh pH 4.5: blocks human alpha-galactosidase A at pH 4.5 | P06280 | purified enzyme, 4-MU-alpha-Gal fluorescence, pH 4.5 | activity change, negative = inhibition, % at 105 µM | 230,000 tested, under 10 active | AID 1467; inconclusive = small, poorly fitted or top-dose-only inhibition, or a rising curve; inactive = flat fitted curve, though single readings scatter; no compound was filed as active;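 note: 0% = full activity with enzyme and -100% = basal without enzyme; dose as in the result columns while the protocol names 77 µM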
miR-21 FLuc: miR-21 reporter, rising signal. HeLa miR-21 FLuc reporter, luciferase, 48 h. Potency, µM (top dose mostly 38.3 µM), inactives show top-dose reporter change, positive = more light. 340,000 tested, under 10 active; active = well fitted rising curve with a large enough effect; inconclusive = small, poorly fitted or top-dose-only effect; inactive = no such curve, though single readings can be large or run the other way;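 note: % of control where 0% means no effect; miR-21 action dims this reporter so a rising signal means less miR-21 action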
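Luminescence from a firefly luciferase reporter carrying a miR-21 binding site downstream, stably expressed under a CMV promoter in HeLa cells that make miR-21 endogenously, reports miRNA modulation after 48 h compound exposure up to approximately 40uM final.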
* = called active by the depositor; u = inconclusive; x = no result given; & = joins results of further samples. A portion of the library; count on the stated rates, not on these rows.

SMILES	Rango-impB inh	Rango dissoc inh	GLA inh pH 4.5	miR-21 FLuc
CC(=O)Nc1ccc(S(=O)(=O)Nc2ccc(S(=O)(=O)Nc3nc(C)cc(C)n3)cc2)cc1	2.5%	8.1%	x	-4.3%
COc1ccc(NC(=S)NC(NC(=O)c2ccc(Cl)cc2Cl)C(Cl)(Cl)Cl)c([N+](=O)[O-])c1 (stereo unspecified)	3.0%	8.6%	0.7	-4.4%
O=C(c1cc(S(=O)(=O)N2CCOCC2)ccc1Cl)N1CCc2ccccc2C1	0.2%	-5.8%	x	-3.1%
Fc1ccc(/C=N/N2CCN(Cc3ccccc3)CC2)cc1	-3.9%	-0.8%	x	-17.6%
CCOC(=O)N1CCN(c2c(-c3ccc(C(C)C)cc3)c(=O)c2=O)CC1	2.0%	-11.6%	4.4	-5.0%
O=C1C2CCCN2C(c2cccc(Br)c2)N1c1ccc(F)cc1 (stereo unspecified)	0.2%	-25.1%	0.9	-9.3%
COC(=O)/C(C#N)=C/c1c(N2CCN(Cc3ccc4c(c3)OCO4)CC2)nc2c(C)cccn2c1=O	0.8%	-0.9%	-9.1	0.6%
Cn1cnc([N+](=O)[O-])c1C(=O)Nc1cccc([N+](=O)[O-])c1	0.9%	3.0%	-9.3	3.4%
O=C(COc1ccccc1Cl)NNC(=O)c1ccc(-n2cncn2)c([N+](=O)[O-])c1	-4.2%	1.1%	x	x
CCOC(=O)c1sc2nc(NC(=O)COc3ccccc3)sc2c1C	-3.4%	-4.7%	5.9	-11.7%
CC(C)Cc1nc(N2CCC(C(N)=O)CC2)c2nnn(Cc3ccccc3)c2n1	-0.5%	-1.9%	4.3	-2.9%
CCC(=O)Nc1ccc(Cl)c(NC(=O)c2ccc([N+](=O)[O-])cc2)c1	-1.6%	9.1%	-4.5	-10.0%
C=CCn1c(SCC(=O)NNC(=O)Nc2ccc(C)cc2)nnc1-c1ccccc1	-1.9%	-20.0%	2.5	3.1%
O=C(O)c1ccc(NC(=S)NC(=O)c2ccc3ccccc3c2)cc1	8.3%	-1.1%	x	-42.2%
CS(=O)(=O)c1ccc2nc(NC(=O)CCNC(=O)c3ccccc3Cl)sc2c1	4.1%	-1.0%	x	x
Cc1cccc(NC(NC(=O)Cc2ccccc2)C(Cl)(Cl)Cl)c1 (stereo unspecified)	3.3%	-4.0%	-4.4	-2.4%
COc1ccc(NC(=O)C2CCCN(S(=O)(=O)c3ccc4c(c3)CCCN4C(C)=O)C2)cc1 (stereo unspecified)	-0.1%	-2.8%	x	5.6%&0.5%
CC(C)CCNC(=O)c1nn(Cc2ccccc2)c(=O)c2ccccc12	1.3%	12.3%	x	1.1%
Cc1ccc(/C=N/Nc2nc3ccccc3[nH]2)s1	0.1%	-0.6%	-6.8	-48.2%
Cc1c(Br)c(C(F)(F)F)nn1CC(=O)N(C)C1CCCCC1	3.7%	-17.9%	x	-0.4%
Cc1ccc(S(=O)(=O)N2[C@@H](c3ccc(F)cc3)C(C(=O)O)=CC[C@H]2c2ccc3c(c2)OCO3)cc1	-2.2%	3.5%	x	x
COC(=O)c1ccc(NC(=S)NC2CCc3ccccc32)cc1 (stereo unspecified)	-0.4%	-3.2%	-0.1	-9.7%
Fc1ccccc1Nc1nc(Cl)nc(Cl)n1	2.8%	-12.1%	-14.0	1.0%
O=c1c(Cl)c(Cl)cnn1Cc1nnc(-c2ccccc2Br)o1	0.3%	5.5%	1.0	u
CCS(=O)(=O)c1ccc2c(c1)N(S(C)(=O)=O)CC(C(=O)NC1CC1)O2 (stereo unspecified)	-0.2%	12.9%	7.2	-0.9%

Retrieved one by one from above, 6 records:
SMILES	Rango-impB inh	Rango dissoc inh	GLA inh pH 4.5	miR-21 FLuc
Fc1ccccc1Nc1nc(Cl)nc(Cl)n1	2.8%	-12.1%	-14.0	1.0%
Cc1cccc(NC(NC(=O)Cc2ccccc2)C(Cl)(Cl)Cl)c1 (stereo unspecified)	3.3%	-4.0%	-4.4	-2.4%
Cc1ccc(S(=O)(=O)N2[C@@H](c3ccc(F)cc3)C(C(=O)O)=CC[C@H]2c2ccc3c(c2)OCO3)cc1	-2.2%	3.5%	x	x
CCOC(=O)N1CCN(c2c(-c3ccc(C(C)C)cc3)c(=O)c2=O)CC1	2.0%	-11.6%	4.4	-5.0%
CC(C)CCNC(=O)c1nn(Cc2ccccc2)c(=O)c2ccccc12	1.3%	12.3%	x	1.1%
O=C(O)c1ccc(NC(=S)NC(=O)c2ccc3ccccc3c2)cc1	8.3%	-1.1%	x	-42.2%

The list continues.
SMILES	Rango-impB inh	Rango dissoc inh	GLA inh pH 4.5	miR-21 FLuc
S=C1N(c2ccccc2)CN(CCN2CCOCC2)CN1c1ccccc1	-1.3%	1.2%	-2.4	0.7%
CN1C(=O)/C(=C/c2cc3c(cc2Br)OCO3)NC1=S	u	u	-7.5	-3.5%
CC(=O)c1c(C)[nH]c(C(=O)Nc2cccc3ccccc23)c1C	-3.8%	-4.2%	x	-8.4%
O=[N+]([O-])c1cc(S(=O)(=O)C(F)(F)F)ccc1N1CCN(c2ccccc2)CC1	1.6%	16.3%	-0.9	-0.9%
CN(C)C(=O)CCc1ccc2c3c([nH]c2c1)[C@]1(C)[C@@H](C(=O)N2CCOCC2)C[C@H](CC(=O)NCCN2CCOCC2)C(=O)N1CC3	-11.0%	8.6%	x	x
COc1ccc(S(=O)(=O)N2CCSCC2)cc1C(N)=O	0.8%	0.3%	x	6.9%
COc1ccc(S(=O)(=O)N2CCN(Cc3ccc4c(c3)OCO4)CC2)cc1	4.3%	-4.1%	x	-4.7%
Cc1ccc(S(=O)(=O)N2CCCC2=O)c(C)c1N(C)S(C)(=O)=O	0.4%	7.0%	x	-2.5%
Cc1ccc(NC(=O)CSCC(=O)N=c2sccn2C)cc1	3.6%	5.2%	x	x
Cc1ccc(C(C)(C)C)c(SCC(=O)Nc2nnc(C)s2)c1	1.3%	2.5%	x	-6.8%
CCOc1cccc(NC(=O)CSc2sc3c(O)cc(=O)[nH]c3c2C#N)c1	1.5%	12.7%	x	14.7%
COC(=O)c1ccc(Cl)c(-c2ccc(/C=N/NC(=O)Nc3ccccc3)o2)c1	-3.5%	12.3%	-1.3	-2.1%
CN1CCN(S(=O)(=O)c2cc([N+](=O)[O-])ccc2N2CCCCCC2)CC1	-0.8%	-4.0%	-0.7	-20.4%
CC(=O)Nc1ccc(-c2cc(-c3ccc(NC(C)=O)cc3)nc(-c3ccc(NC(C)=O)cc3)n2)cc1	u	-28.4%	15.1	0.3%
N/C(=N\OC(=O)Cc1cccs1)c1cccc([N+](=O)[O-])c1	-1.3%	-25.7%	2.0	-30.7%
O=C(Nc1ccccc1F)N1CCC(NC(=O)C23CC4CC(CC(C4)C2)C3)CC1	-2.9%	-2.8%	x	-1.9%
NS(=O)(=O)c1ccc(NC(=O)CSc2nc3ccccc3nc2N2CCOCC2)cc1	8.6%	0.5%	x	0.1%
NS(=O)(=O)c1cccc(NC(=O)c2ccno2)c1	-1.5%	-0.4%	x	-1.7%
COc1cc(/C=C/c2ccc3cccc(O)c3n2)ccc1O	u	u	x	5.4%
COC(=O)c1[nH]c2cccc(OC)c2c1NC(=O)CN1CC(C)OC(C)C1 (stereo unspecified)	-2.8%	-1.4%	-13.4	-8.1%
Cc1ccc(C)c(N2CCN(C3CCCCC3NS(=O)(=O)c3ccccc3)CC2)c1 (stereo unspecified)	-4.6%	22.0%	x	0.1%
CC1CCCCN1C(=O)COC(=O)C1CCN(S(=O)(=O)c2ccc(Cl)c(C(F)(F)F)c2)CC1 (stereo unspecified)	u	0.5%	x	x
CCCCNC(=O)CN(Cc1ccco1)S(=O)(=O)c1ccc(C(C)=O)cc1	0.8%	-3.5%	x	x
CCCCC(=O)NC(c1cccc([N+](=O)[O-])c1)c1c(OC(C)=O)ccc2ccccc12 (stereo unspecified)	0.8%	1.2%	-20.5	2.5%
N#Cc1nc(COc2ccc(Br)cc2)oc1N1CCN(Cc2ccccc2)CC1	-5.7%	-17.1%	-6.6	-8.6%
The list continues:
SMILES	Rango-impB inh	Rango dissoc inh	GLA inh pH 4.5	miR-21 FLuc
CC(=O)c1c(C)oc2ccc(N(C(C)=O)S(=O)(=O)c3cccc([N+](=O)[O-])c3)cc12	-4.6%	7.6%	6.5	-1.7%
CCCOc1ccc(/C=N/NC(=O)c2ccc(Cn3cc([N+](=O)[O-])cn3)o2)cc1	-0.3%	-5.1%	2.8	-25.5%
Cc1ccc2[nH]c(=O)c(CN(CCO)C(=O)NCc3ccccc3)cc2c1	0.5%	1.6%	1.4	1.7%
CCc1nc(SCc2ccccn2)c2c(=O)n(C)c(=O)n(C)c2n1	3.9%	-2.3%	-1.8	-3.1%
CCCCCOc1ccc(CSC2=NCCN2)cc1[N+](=O)[O-]	0.2%	23.2%	-15.0	-8.7%
O=C(CC1NC(=O)NC1=O)Nc1cccc2ccccc12 (stereo unspecified)	-0.3%	-29.0%	-6.9	-3.5%
CCC(NC(=O)CCc1c(C)c2cc3c(-c4ccccc4)coc3cc2oc1=O)C(=O)O (stereo unspecified)	-3.6%	12.4%	x	-0.5%
C[C@H](NC(=O)c1nc[nH]c1C(=O)N[C@@H](CCCCN)C(=O)OC(C)(C)C)C(=O)OC(C)(C)C	-2.3%	7.8%	x	x
CCOc1ccc(OCc2ccc(C(=O)N/N=C(\C)c3ccccn3)cc2)cc1	1.0%	-0.8%	7.3	-9.0%
CCCN(CCC)C(=O)c1c(C)[nH]c(C(=O)OCC)c1C	x	x	-8.0	-6.6%
Cc1ccc(NC(=O)[C@@H]2CCCN2C(=O)[C@@H]2Cc3ccccc3CN2)c(C)c1	-2.3%	-1.1%	x	-20.0%
C/C(=C(\C#N)C(=O)NC1CCCCC1)N(C)C	-0.2%	2.6%	-12.6	1.1%
Cc1ccc2oc(-c3cccc(NC(=O)C4CCCO4)c3)nc2c1 (stereo unspecified)	2.7%	9.2%	-12.2	-42.0%
CC1(C)OC(=O)C(=CNNc2c(Cl)cc(Cl)cc2Cl)C(=O)O1	0.3%	0.3%	-4.7	3.4%
Cc1nc(SCc2ccc(Br)cc2)[nH]c(=O)c1C	0.7%	-15.7%	-7.4	-15.2%
Clc1nnc2ccc(-c3ccccc3)nn12	8.7%	20.2%	4.2	-18.0%
O=C(OCCN1C(=O)c2cccc3c(N4CCOCC4)ccc(c23)C1=O)c1ccc(Cl)cc1	u	u	-11.1	-2.8%
CCOC(=O)C1=C(COC(=O)c2cccnc2Cl)NC(=O)NC1C (stereo unspecified)	-0.3%	-16.1%	x	x
Cc1ccn2c(=O)c(C(=O)NC3CCCCC3C)c(O)nc2c1 (stereo unspecified)	5.2%	-6.5%	x	x
NC(=O)c1cc([N+](=O)[O-])ccc1N1CCCCC1	0.1%	-3.1%	4.6	1.1%
COC(=O)c1sc2ccccc2c1NC(=O)c1ccc(S(=O)(=O)N2CCCCC2)cc1	9.8%	19.5%	4.2	-11.3%
Cc1ccsc1/C=N/NS(=O)(=O)c1ccc([N+](=O)[O-])cc1	u	22.2%	-28.0	-28.3%
CCCCC(=O)Nc1ccc(S(=O)(=O)Nc2nccc(C)n2)cc1	2.4%	5.6%	-7.9	-11.8%
O=C(Nc1cc(S(=O)(=O)N2CCCCC2)ccc1O)c1ccccc1NS(=O)(=O)c1ccc(F)c(F)c1	-0.6%	-3.4%	-11.1	-1.2%
Cc1ccc2[nH]c(=O)cc(C(=O)OC(C)C)c2c1	0.5%	21.3%	7.8	-7.5%
(listing goes on)
SMILES	Rango-impB inh	Rango dissoc inh	GLA inh pH 4.5	miR-21 FLuc
O=C(O)c1cc(S(=O)(=O)N2CCCCC2)ccc1N1CCCCC1	0.4%	-18.6%	x	x
C=CCN(Cc1nc(-c2cc(OC)ccc2OC)oc1C)C1CCS(=O)(=O)C1 (stereo unspecified)	0.5%	2.9%	-7.2	0.8%
O=C(CSc1nc2ccsc2c(=O)n1Cc1ccc(C(=O)O)cc1)NCc1ccco1	2.0%	0.6%	-5.3	-2.2%
O=C(CCCn1cc([N+](=O)[O-])cn1)Nc1ccc2c(c1)OCO2	-0.3%	-16.7%	x	-2.3%
CCCCN(C(=O)c1ccc(-c2ccc([N+](=O)[O-])cc2)o1)c1c(N)n(CC(C)C)c(=O)[nH]c1=O	-5.3%	17.6%	x	x
Clc1cccc(NCc2nnc(SCc3ccccc3Cl)o2)c1	-6.9%	-7.3%	-10.2	-15.6%

Compound activity (PubChem)
